Vif A3G: HIV-1 Vif–A3G interaction blockers – biochemical, TR-FRET, GST-Vif 1-94, biotin-A3G peptide, dose response retest, primary screen (AID 1117319) | TR-FRET GST-Vif / biotin-A3G peptide binding; higher % means a stronger effect; test concentration not given here; strong numbers were not always called active | one-dose inhibition, %; IC50 in µM for titrated hits | actives 0.57% (n = 260,000);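 active = above the screen mean plus three standard deviations and confirmed in dose response; inconclusive = results disagree or hit not tested in dose response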;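 note: Vif residues 1-94 fused to GST binding biotinylated APOBEC3G peptide 110-148; 0% = full assay without inhibitor and 100% = GST in place of GST-Vif; retest series ran down from 100 µM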
LANA-H2A inh: blocks KSHV LANA binding to histone H2A/H2B; cell-free LANA-H2A/H2B peptide, fluorescence polarization; Q9QR71; inhibition, % (test concentration not listed); actives 0.6% (n = 320,000); in the data active = inhibition mostly above about 10%, no sharp cut-off; inactive = mostly below about 6.7%;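 note: stock transfer was 7.5 nL into about 10 µL; 0% = median of vehicle wells and 100% = median of positive control wells; one replicate is shown; the record names a cut of 25% in any replicate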
HNF4A DNA FP: change in binding of human HNF4 alpha to DNA. P41235. HNF4a-FITC DNA binding, fluorescence polarization, 1 h. activity change, % at 10 µM. actives 0.3% (n = 360,000). AID 1224865; in the data active = activity change above about 30%, passing the limit was not always enough;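 note: controls were the assay level and a saturating level of protein; the project sought stronger binding though the title names inhibitors; some compounds called inactive have numbers as strong as hits; positive values seem to mean higher polarization but the record does not say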
Bfl-1 A1 inh: inhibitors of the anti-apoptotic protein A1, read as caspase activation. MEF A1-2A-BIM cells, Caspase-Glo 3/7 luminescence, 3 h; percent of clofoctol response, vehicle zero. caspase activation, % (no concentration beside the values). actives 0.066% (n = 330,000);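 active = over half of replicate activation scores above 10%, or exactly half above 10 with the replicate mean above 10; inconclusive = replicate mean below 10 yet half the replicates above 10; inactive = over half of replicates below 10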;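 note: wells of about 30 µL received 50 nL stock; many hits fall short of the cut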
UCH37 DUB inh: inhibitors of human deubiquitinating enzyme UCH37. AID 588478. Q9Y5K5. actives 0.33% (n = 330,000). inhibition, % (test concentration not listed). purified proteasome/UCH37, Ub-AMC cleavage fluorescence;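 active = mean of two replicates above 20%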;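 note: 0% = compound-free wells with enzyme and 100% = wells lacking proteasome; stock transfer was 100 nL into about 20 µL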
Target sequence (Q9Y5K5 whole entry, looked up): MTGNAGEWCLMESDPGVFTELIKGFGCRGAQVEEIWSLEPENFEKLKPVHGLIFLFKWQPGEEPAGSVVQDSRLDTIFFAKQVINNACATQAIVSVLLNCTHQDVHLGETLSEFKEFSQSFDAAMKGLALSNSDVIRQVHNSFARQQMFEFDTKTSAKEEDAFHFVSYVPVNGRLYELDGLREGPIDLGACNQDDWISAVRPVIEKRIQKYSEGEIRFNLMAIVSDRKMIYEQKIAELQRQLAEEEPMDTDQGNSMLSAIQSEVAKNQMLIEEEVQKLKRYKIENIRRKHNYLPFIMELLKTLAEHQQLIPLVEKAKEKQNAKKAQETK
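Material: Human UCH37 enzyme supplied as purified proteasome complex | Schedule: 30 min preincubation with enzyme, 25 min cleavage at room temperature | Detection: AMC fluorescence 355/460 nm | Measure: % inhibition of Ub-AMC cleavage fluorescence | Controls: Wells without proteasome as full block, compound-free enzyme plus substrate as uninhibited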
Ecoli growth: E. coli growth inhibition; Escherichia coli growth, OD600, 23 h; hits give low values; actives 0.21% (n = 330,000); OD600 absorbance (concentration not given with the values);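 active = OD600 absorbance below the run mean of sample wells minus 3.6 SD, in any replicate, cut at about 0.56 in these data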;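 note: stock transfer was 300 nL into about 60 µL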
B2AR ag: activates human beta-2 adrenergic receptor causing internalization | actives 0.43% (n = 340,000) | P07550 | response, % (no concentration beside the values) | Am2.2-beta2AR cells, FAP receptor internalization, flow cytometry; reference of the scale not given here;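 active = response above a set limit, near 3 SD of response in nonfluorescent compounds, cut at about 42% in these data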;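 note: stock transfer was 100 nL into about 11 µL; a reference agonist was the positive control; negative values mostly stem from fluorescent compounds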
Target sequence (P07550 whole entry, looked up): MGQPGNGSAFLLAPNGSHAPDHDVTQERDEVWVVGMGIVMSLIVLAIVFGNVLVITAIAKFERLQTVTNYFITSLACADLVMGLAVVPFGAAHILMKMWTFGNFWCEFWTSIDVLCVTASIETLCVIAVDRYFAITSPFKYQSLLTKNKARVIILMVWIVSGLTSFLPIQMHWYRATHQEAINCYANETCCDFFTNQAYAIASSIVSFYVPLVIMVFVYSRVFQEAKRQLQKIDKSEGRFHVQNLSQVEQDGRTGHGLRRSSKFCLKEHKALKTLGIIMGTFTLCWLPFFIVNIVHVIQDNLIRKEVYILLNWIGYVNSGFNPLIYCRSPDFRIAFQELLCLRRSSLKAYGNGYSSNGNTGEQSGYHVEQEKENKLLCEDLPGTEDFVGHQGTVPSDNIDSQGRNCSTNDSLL
The depositor's hits bear a star; i = inactive; u = inconclusive; x = no result given; & = joins results of further samples.

item	compound	Vif A3G	LANA-H2A inh	HNF4A DNA FP	Bfl-1 A1 inh	UCH37 DUB inh	Ecoli growth	B2AR ag
1	COc1ccc(OCC(O)CON2C(=O)c3ccccc3C2=O)cc1 (stereo not given)	0%	4.5	-2.6	-0.2	0.5	0.72	1
2	CCOC(=O)c1c(NC(=O)CSc2nnc(-c3ccc(OC)cc3)o2)sc2c1CCC2	-3%	0.5	2.7	0.0	0.0	x	-6
3	CN(C)c1nc(N/N=C/c2ccccc2O)nc(Nc2ccc(F)cc2)n1	-10%	0.8	-1.1	1.0	x	x	-1
4	COc1ccccc1N=C1NC(=O)/C(=C/c2ccc(N(C)C)cc2)S1	-4%	-1.1	144	-2.0	-2.5	0.67	-34
5	COC(CNC(=O)c1coc2nc3ccccc3nc12)OC	12%	-4.4	0.0	-3.0	-84	0.7	2
6	CCN(CC)c1ccc(NC(=O)c2cc3c(OC)cccc3[nH]2)cc1	-2%	-2.4	1.7	-0.9	-3.7	0.65	19
7	O=C(CCNc1ccc(Cc2ccncc2)cc1)c1cccc([N+](=O)[O-])c1	22%	-2.1	-1.3	0.2	1.4	0.62	-11
8	COc1ccccc1N=c1oc2c(OC)cccc2cc1C(=O)NCc1ccco1	2%	2.5	0.7	0.2	5.7	0.78	1
9	O=C(O)C1CCN(S(=O)(=O)c2cccc3cccnc23)CC1	-2%	13	-3.8	-0.3	5.4	0.69	0
10	Cc1cc(Br)ccc1OCC(=O)N1CCCCCC1	8%	-4.3	0.8	0.5	4.9	0.74	-7
11	N=c1c2c(n(Cc3ccc(F)cc3)c3c1CCC3)CCC2	-3%	4.6	-3.6	-1.2	2.4	0.64	0
12	O=C(c1cccc(F)c1)N1CCN(Cc2ccco2)CC1	2%	-0.1	-0.2	0.5	0.0	0.8	3
13	O=C1CC(c2ccc(F)cc2)CC2=C1C=Nc1ccccc1N2 (stereo not given)	4%	1.5	1.6	1.5	x	x	-8
14	CCOc1ccc(NC(=S)NN2C(C)CCCC2C)cc1 (stereo not given)	-10%	0.9	2.7	0.4	3.3	0.66	-10
15	CC(C)(C)NC(=O)NC(=O)CN1CCCCC1	2%	2.0	-1.7	-0.2	0.0	0.7	-3
16	CC(=O)/C(=N/Nc1ccccc1[N+](=O)[O-])N1CCCc2ccccc21	x	0.6	6.7	u	x	x	8
17	CC(=O)NC1=NN(C(C)=O)C(C)(c2ccc(Cl)s2)S1 (stereo not given)	x	-5.7	-0.2	0.4	3.6	0.7	0
18	Cc1cc(C(=O)Cn2cncn2)c(C)n1CCc1ccc(F)cc1	-3%	-5.8	1.8	-0.4	-1.9	0.75	-7
19	CCOc1ccc(N(CC(=O)NC2CCCC2)C(=O)c2ccc(C)s2)cc1	x	-3.5	4.9	0.8	3.8	0.7	-15
20	Cc1cc(OCc2nnc(SCC(=O)O)n2-c2ccccc2)ccc1Cl	-20%	-0.9	1.8	-0.4	x	x	-4
21	CCCCNC(=O)CSc1nc2ccsc2c(=O)n1C1CCN(C(=O)OCC)CC1	-4%	-5.0	-0.9	-0.6	-0.4	0.71	-12
22	Cc1ccc(O)c(NC(=O)c2noc3c2CCc2ccccc2-3)c1	-14%	-0.6	2.8	0.4	-0.4	0.71	17
23	O=C(c1cccc(S(=O)(=O)NCc2ccccc2)c1)N1CCN(c2ccccc2)CC1	x	0.1	-0.7	1.3	2.5	0.67	-5
24	N#CCNC1CC(=O)N(c2ccc(F)cc2)C1=O (stereo not given)	x	0.3	2.8	1.2	1.1	0.71	-4
25	Cc1ccc(C(=O)COc2cc(C)nc3nncn23)cc1	10%	0.0	2.1	1.4	3.8	0.66	2
26	O=C(c1ccco1)N1CCN=C1SCc1c(F)cccc1Cl	-3%	0.8	11	0.3	1.8	0.71	0
27	CCOCCn1c(CN2CCOCC2)nc2c1c(=O)[nH]c(=O)n2C	-1%	-3.3	1.5	0.4	1.8	0.71	-1
28	O=C(COc1ccc(Cl)cc1)NNC(=O)c1ccccn1	u	0.2	-2.2	-0.8	2.3	0.71	6
29	CCC1(c2ccc(F)cc2)NC(=O)N(CC(=O)NCc2ccccc2Cl)C1=O (stereo not given)	2%	-7.1	7.5	-0.5	2.9	0.65	-1
30	COc1ccc(CN(C)CC(=O)Nc2cccc(S(=O)(=O)N(C)c3ccccc3)c2)c(OC)c1	-1%	5.3	0.3	-0.7	-1.7	0.65	-1
31	O=C1CCN(Cc2ccccc2)C=C1c1cccc(O)c1	x	i	1.5	-0.3	x	x	4
32	O=C(c1cccnc1)N1CCC(Oc2ccc(C(=O)N3CCCC(O)C3)cc2)CC1 (stereo not given)	x	2.4	3.5	1.3	5.0	0.7	6
33	COc1ccc(/C=N/n2c(=O)[nH]c3c([nH]c4ccc(C)cc43)c2=O)cc1CN1CCOCC1	0%&29%	x	2.0	x	x	x	3
34	CCOC(=O)C1CCCN(C(=O)COc2ccc(C(=O)c3ccccc3)cc2)C1 (stereo not given)	-1%	x	0.4	x	0.6	0.67	-4
35	CCc1nc2c(c(=O)c3ccccc3n2C)c(=O)n1C1CCCCCC1	0%	-1.4	3.8	-0.3	2.6	0.65	-15
36	O=C1NC2(CCCCC2)C(=O)N1/N=C/c1ccc(O)cc1O	-8%	4.3	0.1	-0.9	x	x	-5
37	COc1cc(NC(=O)c2cc(Br)cc(C)c2OC)ccc1NC(=O)C(C)C	-12%	-4.0	-2.9	0.0	-12	0.64	-7
38	O=C1CSC(c2ccc(F)cc2)N1c1ccccc1F (stereo not given)	-1%	8.1	-6.0	0.8	1.0	0.7	1
39	CC(C)(C)c1nc(N)nc(=O)[nH]1	x	-1.1	0.9	0.0	4.0	0.69	5
40	Cc1nc2nc(SCc3nc4ccccc4[nH]3)[nH]c2cc1Br	-5%	0.2	0.6	0.4	1.1	0.57	-2
41	O=C(CSc1nnc(-c2ccncc2)n1Cc1ccco1)Nc1ccccc1F	0%	4.9	-1.5	1.1	2.6	0.64	-4
42	CCCN(CC(=O)Nc1cccc(Br)c1)CC(=O)Nc1ccc(F)c(F)c1F	x	-1.0	3.5	-0.1	4.8	0.65	13
43	COc1ccc(Cl)cc1NC(=O)CN(C1CCCCC1)S(C)(=O)=O	-2%	2.6	-1.7	1.7	4.2	0.67	-3
44	O=C(CSc1ncccn1)NCc1ccc(F)cc1	-2%	1.9	-0.8	1.1	2.8	0.72	4
45	CCCCCSc1nnc(-c2cc(Br)ccc2N)c(=O)[nH]1	2%	4.3	1.2	0.0	4.9	0.65	11
46	Cc1cc(C)cc(C(=O)OCC(=O)NCc2cccs2)c1	x	-1.5	2.0	1.5	-1.6	0.65	4
47	O=c1[nH]c2ccccc2n1Cc1ccc(F)cc1	x	-5.2	-5.0	0.6	1.7	0.68	-5
48	O=C1CN(C(=O)c2cc(Br)c(Br)s2)c2ccccc2N1	-31%	5.8	0.1	0.1	2.8	0.7	-15
49	Cc1c(NC(=O)CN2C(=O)C(=O)c3ccccc32)c(=O)n(-c2ccccc2)n1C	2%	-1.1	3.2	0.9	0.2	0.67	-2
50	COC(=O)C1=C(C)N(c2ccccc2)C(=S)NC1c1ccccc1C(F)(F)F (stereo not given)	-7%	1.8	5.4	0.8	1.7	0.67	6
51	O=C1[C@@H]2C(c3ccc(F)cc3)=NO[C@@H]2C(=O)N1Cc1ccccc1	-3%	-3.6	2.4	0.4	-0.8	0.67	-2
52	COc1cc(C(=O)N2c3ccccc3CC2C)cc(OC)c1OC (stereo not given)	-2%	3.3	-0.7	0.7	7.6	0.77	5
53	O=C1/C(=C/c2cccs2)Sc2ccccc21	x	x	0.7	-0.4	-0.1	0.66	5
54	CN(Cc1ccccc1)C(=O)CN1C(=O)NC(C)(c2ccc(C(C)(C)C)cc2)C1=O (stereo not given)	x	-3.9	-0.4	-0.5	6.9	0.66	19
55	CSCCC(NC(=O)c1ccccc1Br)C(=O)NCC(c1ccco1)N1CCCCC1 (stereo not given)	-5%	1.3	0.2	-0.4	-0.2	0.63	-3
56	CCN1C(=O)[C@H]2[C@@H](c3ccc(-c4ccc(F)cc4)cc3)N[C@@](C)(C(=O)OC)[C@H]2C1=O	x	-3.1	11	0.5	3.6	x	4
57	O=C(O)CC(NC(=O)C12CC3CC(CC(C3)C1)C2)c1ccc(OC2CCCC2)cc1 (stereo not given)	-6%	-2.3	-1.6	-0.2	-1.6	0.63	4
58	CCN(CC)S(=O)(=O)c1ccc(/C=C/C(=O)Nc2ccc(N3CCOCC3)cc2)cc1	56µM*	2.2	-3.1	-0.8	4.1	0.65	2
59	Cc1cccc(OCc2nnc(SCC(=O)N(C(C)C)C(C)C)n2Cc2ccco2)c1C	8%&-2%	-0.2	1.1	0.0	0.2	0.69	-7
60	CC(C)(C)OC(=O)N[C@H]1C=C[C@H](OC(=O)CC(=O)OCC(F)(F)F)C1	4%	x	1.2	x	0.9	0.7	0

Other compounds
item	compound	Vif A3G	LANA-H2A inh	HNF4A DNA FP	Bfl-1 A1 inh	UCH37 DUB inh	Ecoli growth	B2AR ag
61	COc1ccc(CCNC(=O)C2CCCN2S(=O)(=O)c2cccc3nsnc23)cc1OC (stereo not given)	-4%	-0.9	0.9	0.9	2.8	0.63	16
62	COc1ccc(C(=O)c2c3ccccc3[n+]([O-])n2CCC(N)=O)cc1	x	-0.7	0.7	-0.2	4.6	0.67	-5
63	O=C(Nc1nnc(COc2ccc(Cl)cc2)s1)C1CCCO1 (stereo not given)	-3%	4.0	-1.2	u	x	0.69	-7
64	Nc1ccccc1-c1nc2ccccc2s1	0%	-7.4	1.6	-2.6	-210	0.73	-1
65	Cc1ccc(S(=O)(=O)N2CCN(C(=O)c3ccccc3)C2)cc1[N+](=O)[O-]	-5%	3.7	1.6	-0.9	2.9	0.73	-8

Part of the list above, as labelled records:
27. CCOCCn1c(CN2CCOCC2)nc2c1c(=O)[nH]c(=O)n2C
  Vif A3G: -1%
  LANA-H2A inh: -3.3
  HNF4A DNA FP: 1.5
  Bfl-1 A1 inh: 0.4
  UCH37 DUB inh: 1.8
  Ecoli growth: 0.71
  B2AR ag: -1
28. O=C(COc1ccc(Cl)cc1)NNC(=O)c1ccccn1
  Vif A3G: u
  LANA-H2A inh: 0.2
  HNF4A DNA FP: -2.2
  Bfl-1 A1 inh: -0.8
  UCH37 DUB inh: 2.3
  Ecoli growth: 0.71
  B2AR ag: 6
29. CCC1(c2ccc(F)cc2)NC(=O)N(CC(=O)NCc2ccccc2Cl)C1=O (stereo not given)
  Vif A3G: 2%
  LANA-H2A inh: -7.1
  HNF4A DNA FP: 7.5
  Bfl-1 A1 inh: -0.5
  UCH37 DUB inh: 2.9
  Ecoli growth: 0.65
  B2AR ag: -1

From PubChem
